Yeast UUG start – yeast start codon fidelity modulation | activity score, % at 18.7 µM | S. cerevisiae UUG-firefly luciferase reporter, luminescence/redox ratio | AID 602363 | 350,000 compounds, 0.13% hits;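 active means replicate mean at a twofold rise or more, about +100% in these data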;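 further: firefly luciferase made from a UUG start codon reports start codon fidelity; reporter light over untreated wells divided by growth signal over untreated wells; some hits fall short of that in this replicate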
MT1-MMP act inh – inhibitors of human MT1-MMP activation | 360,000 compounds, 0.061% hits | P50281 | GFP/RFP ratio change, % at 20 µM | HT1080 RFP-PRO-GFP cells, GFP/RFP ratio fluorescence, overnight; percent of plate control window, DMSO zero;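 active means GFP/RFP ratio change of at least 30% with cell ATP level not reduced by more than half and red fluorescence within 50% of control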; further: strong numbers were not always called active
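Assay system: HT1080 RFP-PRO-GFP cells. Benchmarks: DMSO vehicle wells and RFP-L50D-GFP reporter cell wells. Times: overnight cell settling, then overnight compound exposure, 37 °C, 5% CO2. Compound: 20 µM single dose, 1% DMSO. Read-out basis: GFP/RFP fluorescence ratio.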
CSC inhib – blocks cancer stem cells; cancer stem cell-like cells viability, luminescence; inhibition, % at 7.5 µM; 300,000 compounds, 1.1% hits;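 active means mean at 75% or more and at least half the replicates too; inconclusive means mean and replicates disagree; tested in HMLE shEcad cells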;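 further: 0% = median of negative and 100% = median of positive control wells; the first replicate is given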
eIF4H FP inh – inhibitors of RNA binding by human eIF4H; eIF4H fluorescence polarization binding assay; inhibition, % at 35 µM; Q15056; 290,000 compounds, 0.94% hits;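 active means 50% or more with normal probe brightness, or confirmed in later tests; inconclusive means above 50% with abnormal brightness, or retests that disagree; inactive means below 50% or failed in later tests; about a fifth of its hits are not listed in these tables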;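 further: calls also rest on retests at 20 µM and on dose response follow-up; 0% = protein and probe with vehicle and 100% = probe without protein; strong numbers were not always called active; many hits fall short of the cut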
Env fusion inh – blocks HIV Env-driven cell-cell fusion | HeLa-JRFL Env/CEM21 cell fusion, luciferase | inhibition, % at 12.3 µM | 360,000 compounds, 1.1% hits;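 active means mean replicate inhibition score of at least 50 and every replicate individually at or above 50; inconclusive means only one of the two criteria met; inactive means mean below 50 and not all replicates reaching 50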;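 further: 0% = plate neutral controls and 100% = maraviroc near 300 nM; one replicate is shown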
Rce1 inhib – inhibitors of yeast Ras-converting enzyme; 290,000 compounds, 0.27% hits; calls only; yeast membranes, quenched prenylated peptide cleavage fluorescence; AID 2563;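 active means fall in fluorescence gain of 50% or more versus controls, with final raw signal at or below 3038400; inconclusive means same 50% fall but final raw signal above 3038400; inactive means fall in fluorescence gain under 50%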;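 further: plate controls were neutral control wells for no effect and wells lacking membranes for full effect; tested at 10 µM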
Target sequence (Q03530 whole entry, looked up): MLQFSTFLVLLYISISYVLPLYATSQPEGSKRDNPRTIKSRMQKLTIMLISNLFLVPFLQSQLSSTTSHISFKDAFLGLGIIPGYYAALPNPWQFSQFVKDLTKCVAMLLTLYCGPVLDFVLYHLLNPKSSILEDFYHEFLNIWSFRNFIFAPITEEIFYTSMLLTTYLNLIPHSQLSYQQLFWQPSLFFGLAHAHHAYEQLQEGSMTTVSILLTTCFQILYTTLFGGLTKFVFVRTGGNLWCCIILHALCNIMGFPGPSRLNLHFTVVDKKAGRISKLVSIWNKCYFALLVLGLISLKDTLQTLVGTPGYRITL
PABP FP inh – PABP-poly(A) binding inhibition; P11940; PABP-poly(A) RNA binding, fluorescence polarization; inhibition, % at 35 µM; 290,000 compounds, 1% hits;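 active means 50% or more with normal probe brightness, or confirmed in later tests; inconclusive means above 50% with abnormal brightness, or retests that disagree; inactive means below 50% or failed in later tests; about a fifth of its hits are not listed in these tables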;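 further: calls also rest on retests at 20 µM and on dose response follow-up; controls were probe without protein and protein plus probe with vehicle; some compounds called inactive have numbers as strong as hits; many hits fall short of the cut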
eIF4H FP inh retest – further read-out of eIF4H FP inh, marked with its call; inhibition, %; compound at 20 µM; confirmation average;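 mean of two retest wells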
PABP FP inh retest – further read-out of PABP FP inh, marked with its call; inhibition, %; compound at 20 µM; confirmation repeats;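 mean of two retest wells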
MT1-MMP act inh RFP – recorded beside MT1-MMP act inh, whose call it bears; RFP signal change, %; measured here: RFP expression control read;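 0 = vehicle wells; hits needed this value within 50% of zero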
An asterisk follows results filed as active; i = inactive; ? = inconclusive; . = no result given.

SMILES	Yeast UUG start	MT1-MMP act inh	MT1-MMP act inh RFP	CSC inhib	eIF4H FP inh	Env fusion inh	Rce1 inhib	PABP FP inh	others
COC(=O)C1=NN(c2ccc(Cl)cc2)C2C(=O)N(c3ccccc3OC)C(=O)C12 (stereo unspecified)	.	0	8	-17	-7	9	i	18
Cc1cccc(C)c1-n1nnnc1C(c1cccc2ccccc12)N1CCN(C/C=C/c2ccccc2)CC1 (stereo unspecified)	-2	-3	-13	.	.	-20	.	.
CN1CCN(CCCNc2c(C=O)c(=O)[nH]c3ccccc23)CC1	-12	1	-1	-7	0	-3	i	38
COC(=O)CN1C(=S)N(c2ccc(OC)cc2)C(=O)/C1=C/c1cccs1	.	2	7	12	-7	10	i	15
O=C(NCc1ccco1)C(c1ccncc1)N(C(=O)Cn1nnc2ccccc21)c1ccccc1F (stereo unspecified)	-4	-2	-6	-3	7	-16	i	0
O=S1(=O)CCS(=O)(=O)C1c1ccccc1	-8	-3	-4	9	.	21	i	.
CC1(C)S/C(=N/N=C/c2ccco2)NC1=O	-19	8	5	-1	?	-26	i	121*	PABP FP inh retest=58*
COc1ccc(-c2noc(CN(C)C(=O)CCCN3C(=O)[C@H]4CC=CC[C@H]4C3=O)n2)cc1	3	-1	-7	.	.	-1	.	.
O=C(NC1CCCC1)C(c1ccc(F)cc1)N(Cc1ccc(F)cc1)C(=O)CCl (stereo unspecified)	0	5	7	-10	-8	-17	i	-7
CC(=O)N(Cc1ccc(Br)cc1)c1ccccc1C(=O)O	-7	2	4	-5	-6	0	i	-10
O=C1NC(c2cccs2)C(C(=O)c2ccccc2)C(O)(C(F)(F)F)N1 (stereo unspecified)	-19	-2	1	-2	2	-16	i	6
COCCNC(=O)c1c[nH]c2cc(OC)c(OC)cc2c1=O	-5	9	2	.	-6	25	i	5
Cc1c(O)ccc2c(CN3CCOCC3)cc(=O)oc12	-18	-5	3	5	-6	1	i	0
COCCN1C[C@@H](CO)O[C@@H](n2cnc3c(NCc4ccc(F)cc4)ncnc32)C1	-18	2	1	.	.	37	.	.
COc1ccccc1-c1ocnc1C(=O)N1CCN(S(=O)(=O)c2ccc(NC(C)=O)cc2)CC1	-7	2	-1	13	7	2	i	2
CC1CCC(CN2CCN=C2N(C)C)CC1 (stereo unspecified)	0	-2	3	-5	.	?	.	.
CCCc1nc2c(C)cc(Br)cn2c1Cc1ccsc1	1	-5	2	.	.	-17	.	.
CCOC(=O)c1cc(OC(=O)c2cccs2)n(-c2ccccc2)n1	-4	4	3	-9	3	.	.	2
COc1ccc(-c2cc(Cl)cc3c(=O)c4ccccc4n(C)c23)cc1F	-13	-5	-7	21	-6	5	i	-4
COC(=O)c1ccccc1NC(=O)C(=O)NCc1ccncc1	.	3	4	-2	6	8	i	-4
CS(=O)(=O)N(CCc1ccccc1)CC(=O)NCc1cccnc1	-23	1	6	.	-6	.	i	15
CS(=O)(=O)N1CCC2(CC1)OCCN2S(=O)(=O)c1ccccc1	-15	2	2	-5	.	8	i	.
COc1ccc(CCNCCC(=O)Nc2c(C)cc(C)cc2C)cc1OC	.	1	1	-6	0	.	i	-7
COc1ccc(CN(C)CC(=O)NC(C)c2ccccc2)cc1OC (stereo unspecified)	.	8	4	-2	-2	-5	i	-8
Cn1c(C(=O)O)c(CC(=O)Nc2ccccc2F)c2ccccc21	-40	-7	6	8	-3	-39	i	5
CCOC(=O)/C=C(/C)N1N=C(c2ccc(OC)cc2)CC1c1cccc([N+](=O)[O-])c1 (stereo unspecified)	-15	0	-5	5	2	-1	i	18
CCc1nccn1S(=O)(=O)c1ccc(C)c(C)c1	-1	5	6	-15	4	.	i	-9
CC(C(=O)Nc1nc2ccccc2s1)n1cc([N+](=O)[O-])cn1 (stereo unspecified)	.	-1	0	4	-8	8	i	0
COc1ccc([N+](=O)[O-])cc1NC(=O)c1cc(C)c(C)o1	.	4	0	4	1	0	i	4
CSc1cc(/C=N/O)c(SC)s1	.	-4	-1	-7	-11	.	i	-8
Brc1ccc(CNc2cc3c(cc2Br)OCCO3)cc1	.	0	0	-11	-4	22	i	-4
Cc1cccc(C)c1NC(=O)CN(C)C(=O)C(c1ccccc1)c1ccccc1	.	-2	-2	-5	-12	-4	i	-6
Cn1ccnc1SCC(=O)Nc1cccc(C#N)c1	-14	0	2	-12	.	-24	.	.
CC1(C2CC2)NC(=O)N(CC(=O)N2CCN(c3ccccc3F)CC2)C1=O (stereo unspecified)	6	5	2	.	.	1	.	.
COc1ccc2c(C)nc(Nc3nc(C)cc(C)n3)nc2c1	-30	-1	3	-8	0	-14	i	-3
O=C(c1ccco1)N1CCN(C(=O)c2ccccc2Oc2ccccc2)CC1	.	7	4	2	7	.	.	-4
C/C(=N\NC(=O)c1c(Cl)c(C)nn1C)c1cccc(NC(=O)COc2ccc(Cl)cc2)c1	-13	9	-4	17	3	-62	i	-10
CS(=O)(=O)N1CCCCC1c1cc(C(=O)Nc2cccc(C#N)c2)no1 (stereo unspecified)	-34	-2	0	.	.	13	.	.
O=C(NC(=O)c1csnn1)Nc1ccccc1Cl	10	3	0	2	-13	-34	i	-8
CCN1C(=O)C2C(c3cccc(F)c3)NC(CC)(C(=O)OC)C2C1=O (stereo unspecified)	.	-1	0	-9	-1	-35	.	-14
COc1cccc(NC(=O)N(CCCN2CCOCC2)C(C)c2cc3ccccc3o2)c1 (stereo unspecified)	-12	3	1	.	-4	.	i	-3
CCOC(=O)Cn1nc(/C=C/c2ccccc2)ccc1=O	-9	-5	9	.	-4	.	i	0
O=C(N/N=C/c1ccc2c(c1)OCO2)c1ccc2ccccc2n1	.	2	3	16	49	-16	i	-4
Cc1ncsc1CCOC(=O)c1cccnc1	-12	-7	-5	-13	-6	.	i	22
COc1cc(N2C(=O)C=CC2=O)c(OC)cc1Cl	-54	1	3	14	-6	-2	i	8
CCCc1nnc(NC(=O)OCC)s1	.	1	3	-19	-13	1	i	-10
CCC1(CC)C(=O)N=C2c3ccccc3C(=O)N21	-5	-5	6	-6	4	.	i	-2
Oc1ccc2n[nH]nc2c1	-14	4	11	-12	2	-2	i	9
CCN(CC)C(=O)Oc1ccc2c(=O)c(-c3ccccc3)coc2c1	-13	-2	-7	20	-1	-83	i	-2
CC(=O)c1ccc(N2CCN(C(=O)C3CCC3)CC2)cc1	-8	6	-2	10	1	-17	i	-3
O=c1c2ccccc2c(C=Nc2ccc(S(=O)(=O)N3CCCCC3)cc2)c(O)n1-c1ccc(Cl)cn1	.	2	2	.	-3	15	i	6
Cc1ccc(N2C(=O)C3C4C=CC(C4)C3C2=O)cc1C (stereo unspecified)	-5	9	4	0	-8	-27	i	-2
CCN(CC)C(=O)CSc1nc2ccc(NC(=O)CSc3nccn3C)cc2s1	.	5	-9	-3	-8	-25	i	8
Cc1cccc(NC(=O)CSc2nncn2N)c1C	-6	0	2	.	.	-2	.	.
COc1cc(C(=O)NCc2nnc(SCC(=O)Nc3cc(C)cc(C)c3)o2)cc(OC)c1OC	-12	4	4	-3	-2	-117	i	4
O=c1[nH]c(C2CCN(S(=O)(=O)c3ccccc3)CC2)nc2c1nnn2Cc1ccc2c(c1)OCCO2	-18	-5	-4	2	.	11	i	.
O=c1c2ccccc2nc(-c2ccc([N+](=O)[O-])cc2)n1O	.	4	4	3	3	19	i	4
CCN1C(=O)/C(=C2/Sc3ccc(OC)cc3N2C)SC1=Nc1ccc(OC)cc1	-16	3	7	-5	1	7	i	-7
Cc1cc(O)cc(O)c1C(=O)Cc1cscn1	-31	-3	-1	1	3	.	i	1
Cc1ccc(S(=O)(=O)NN2C(=O)/C(=C/c3ccc(C(=O)O)cc3)SC2=S)cc1	7	-2	0	-2	2	2	i	12
(further entries)
SMILES	Yeast UUG start	MT1-MMP act inh	MT1-MMP act inh RFP	CSC inhib	eIF4H FP inh	Env fusion inh	Rce1 inhib	PABP FP inh	others
O=C(O)CCCC(=O)N1N=C(c2ccccc2)CC1c1ccc2c(c1)OCO2 (stereo unspecified)	11	-1	1	-8	-4	12	i	12
CCCCN1C(=S)NC[C@@H]1Cc1ccccc1	-4	7	0	7	5	13	i	-2
Cc1nnc(SCC2=C(C(=O)O)N3C(=O)C(NC(=O)Cn4nc(C)c(Cl)c4C)C3SC2)s1 (stereo unspecified)	.	-1	1	-1	9	-10	i	7
CC(=O)Nc1ccc(N)cc1	-7	0	5	-14	.	.	.	.
COc1cc2nc(CN3CCN(S(=O)(=O)c4cc(C)ccc4C)CC3)[nH]c(=O)c2cc1OC	-12	-5	-9	.	.	7	.	.
O=C(Nc1ccccc1N1CCCCC1)C1CC(=O)N(c2ccccc2F)C1 (stereo unspecified)	-16	7	7	-9	.	.	.	.
Cc1cccc(C)c1NC(=O)CN1CCN(C/C=C/c2ccccc2)CC1	-13	2	1	.	.	3	.	.
C[C@H](O)[C@@H]1C(=O)N2CCc3c([nH]c4ccccc34)[C@@H]2C[C@@H]1N(C)C(=O)Nc1ccc(F)cc1	4	-2	-2	.	.	3	.	.
CNC(=S)Nc1ccc([N+](=O)[O-])c(C)c1	-27	2	-7	8	1	-15	i	4
Cc1cc(=O)oc2cc(OCC(=O)NCc3ccccn3)ccc12	-9	-5	-4	13	-6	.	i	-8
COc1ccc(C2CC(=O)c3cnc(N4CCc5ccccc54)nc3C2)c(OC)c1 (stereo unspecified)	.	.	.	-2	1	.	i	-5
O=C(Cn1nnc(-c2ccc(Cl)cc2)n1)NC(=O)NC1CCCC1	-4	2	4	.	.	-3	.	.
CC(=O)Nc1c(C(=O)NCc2ccccc2)nnn1Cc1ccccc1	-9	0	1	.	3	.	i	-1
Cc1c(NC(=O)COC(=O)CSc2ccc(C(N)=O)cc2[N+](=O)[O-])c(=O)n(-c2ccccc2)n1C	-6	0	3	0	-1	.	i	8
Cc1c(C(=O)OC2CCC(C)CC2)[nH]c2c1C(=O)CCC2 (stereo unspecified)	-22	-17	-21	.	75*	-180	i	-16	eIF4H FP inh retest=83*;PABP FP inh retest=36
CCCCCOC(=O)C1=C(C)NC(=O)NC1c1ccc(OC)cc1 (stereo unspecified)	-3	-5	-8	-6	-4	19	i	3
CCCNC(=O)NC(=O)COC(=O)CC(NC(N)=O)c1ccc(Cl)cc1 (stereo unspecified)	.	1	2	-11	0	13	i	-1
CC1(C)OC(=O)C(=CNc2ccccc2F)C(=O)O1	-15	5	13	7	-4	2	i	1
CC1(C)Cc2c(sc(NC(=O)c3ccc(C(=O)c4ccccc4)cc3)c2C#N)C(C)(C)N1	-8	4	-7	-6	0	40	i	-8
O=C(CN1CCN(S(=O)(=O)c2ccccc2)CC1)Nc1ccc2c(c1)CCC2	.	0	0	-1	-2	.	i	-2
CC(NS(=O)(=O)c1ccc2c(c1)CC(C)N2C(=O)C1CC1)c1ccccc1 (stereo unspecified)	-11	0	-8	-6	2	4	i	-3
CC(=O)N(Cc1ccc(F)cc1)C1=C(NCCc2ccccc2)C(=O)c2ccccc2C1=O	-10	-30	-34	-9	-4	84*	i	6

A draw from above in order of number of heavy atoms, smallest number first:
SMILES	Yeast UUG start	MT1-MMP act inh	MT1-MMP act inh RFP	CSC inhib	eIF4H FP inh	Env fusion inh	Rce1 inhib	PABP FP inh	others
CC1(C)OC(=O)C(=CNc2ccccc2F)C(=O)O1	-15	5	13	7	-4	2	i	1
CC(NS(=O)(=O)c1ccc2c(c1)CC(C)N2C(=O)C1CC1)c1ccccc1 (stereo unspecified)	-11	0	-8	-6	2	4	i	-3
CC1(C)Cc2c(sc(NC(=O)c3ccc(C(=O)c4ccccc4)cc3)c2C#N)C(C)(C)N1	-8	4	-7	-6	0	40	i	-8

Screening results from PubChem BioAssay.

Rows are unselected (roughly 2.9% active in at least one column).
